D2 agonist – activates the human D2 dopamine receptor | P14416 | 360,000 tested, 0.084% active | activation, % (concentration not given with the values) | AID 624465 | DiscoveRx PathHunter D2 beta-arrestin, luminescence, 90 min; 100% = 57 uM dopamine signal; in the data active = activation above about 40%; inconclusive = about 15% to 40%; inactive = below about 15%; further: compound concentration not given in the record; the text of the record calls up to 30% inactive
Target sequence (P14416 whole entry, looked up): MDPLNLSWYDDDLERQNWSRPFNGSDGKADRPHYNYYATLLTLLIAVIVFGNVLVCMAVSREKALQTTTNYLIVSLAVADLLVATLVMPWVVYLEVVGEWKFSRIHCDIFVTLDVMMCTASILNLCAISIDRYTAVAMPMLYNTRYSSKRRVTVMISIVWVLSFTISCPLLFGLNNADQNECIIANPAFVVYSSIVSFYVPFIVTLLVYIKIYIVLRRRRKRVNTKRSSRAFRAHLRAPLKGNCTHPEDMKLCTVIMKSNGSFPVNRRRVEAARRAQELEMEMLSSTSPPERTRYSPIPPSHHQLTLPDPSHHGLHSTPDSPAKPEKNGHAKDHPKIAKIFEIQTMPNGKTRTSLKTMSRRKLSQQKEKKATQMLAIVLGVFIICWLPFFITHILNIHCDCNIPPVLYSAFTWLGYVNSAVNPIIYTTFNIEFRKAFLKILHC
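Agonist mode: compounds alone added to overnight-plated D2 PathHunter cells for 90 min at 37 C, with 57 uM final dopamine (EC100) defining full response. Beta-arrestin recruitment detected by chemiluminescent reagent, read after 1 h at ambient temperature.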
gsp antag – antagonists of gsp mutant (McCune-Albright syndrome); 340,000 tested, 0.4% active; AID 624288; gsp-mutant cells, cAMP HTRF, 30 min; control for the full effect not named in the record; Potency, µM (doses to about 76.9 µM), for inactives: at the top dose activity change, negative = inhibition, actives largely listed as inhibitors; active = falling curve of any shape with a large fitted effect; inconclusive = falling curve, mostly with a smaller effect; inactive = flat or rising curve; cell line not stated here;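 further: intracellular cAMP measured with PDE inhibitor Ro 20-1724 present during compound exposure; potency means the concentration at half of the fitted maximal effect; on the % scale 0 is the no-effect control and ±100 the full control effect; nearly all actives have a fitted effect of over 65% in size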
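Cells, 2000/well, grown 16–24 h in DMEM 10% FBS with 0.5 mg/ml G418, then compounds plus […] (300 uM addition stock), 30 min at 37C. cAMP read by HTRF (cAMP-d2 and anti-cAMP antibody-K in lysis buffer) after 30 min RT.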
D2 PAM – human D2 receptor positive allosteric modulation. potentiation, % (concentration not given with the values). 360,000 tested, 0.23% active. P14416. DiscoveRx D2 beta-arrestin cells, luminescence, 90 min; 100% = 57 uM dopamine signal; active = potentiation of 50% or more; inconclusive = 30% to 50%; inactive = 30% or less;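 further: compound concentration not given in the record; tested on top of an EC20 dose of dopamine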
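D2 cells co-treated with compound plus 50 nM dopamine (EC20) for 90 min at 37 deg C to detect potentiation. Beta-arrestin recruitment was read as enzyme-fragment luminescence after 1 h at ambient temperature. Full response was set by 57 uM dopamine.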
Six1-Eya2 blk – blocks human Six1 binding to Eya2; AID 651725; AlphaScreen GST-Six1/His-Eya2 binding, biochemical; hits give low values; control for the full effect not named in the record; Q15475+O00167; activity change, % (concentration not given with the values); 360,000 tested, 0.56% active; in the data active = activity change below about -65%; inconclusive = about -30% to -65%; inactive = above about -30%; further: on the % scale 0 is the no-effect control and ±100 the full control effect
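Homogeneous AlphaScreen proximity assay pairing GST-Six1 with His-tagged Eya2 (added as 5X mix: 250 nM and 500 nM) in 50 mM Tris pH 8.0, 300 mM NaCl, 1 mM TCEP. Glutathione donor and nickel acceptor beads; 1 h, 37 °C, dark.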
CtBP-E1A inh – inhibitors of CtBP/E1A interaction | AlphaScreen GST-E1A/His-CtBP binding, 1536-well; hits give low values; control for the full effect not named in the record | activity change, % (no concentration beside the values) | 340,000 tested, 0.49% active; in the data active means activity change below about -65%; inconclusive means about -30% to -65%; inactive means above about -30%; further: on the % scale 0 is the no-effect control and ±100 the full control effect; compound concentration not given in the record
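Protein mix (5X: 125 nM each GST-E1A, His-CtBP) was incubated with pinned compound 2 h at 37 deg C in dark, in 50 mM Tris pH 8.0 buffer with 300 mM NaCl. Glutathione donor and nickel acceptor beads followed; AlphaScreen signal read after 1 h.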
gsp agonist – activates gsp, the McCune-Albright syndrome mutation; gsp mutant cells, cAMP HTRF, 30 min; control for the full effect not named in the record; Potency, µM (doses to about 76.9 µM), without a hit: at the top dose activation (cAMP increase), most hits filed as activators; 340,000 tested, 0.13% active; AID 624287; active = well fitted activation curve with a large enough effect; inconclusive = small, poorly fitted or top-dose-only effect, or another doubt; inactive = no such curve, though single readings can be large or run the other way; cell line not stated here;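 further: phosphodiesterase inhibitor Ro 20-1724 added with compounds to block cAMP breakdown; potency means the concentration at half of the fitted maximal effect; nearly all actives have a fitted effect of over 60% in size; about a fifth of the inactives were tested at one dose only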
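Cells stably selected in G418 were plated at 2000/well, grown 16-24 hr, then given compounds in DMSO with the PDE inhibitor […] (300 uM solution added) for 30 min at 37C; cAMP was read by HTRF.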
* = called active by the depositor; ? = inconclusive; · = not tested or not shown; [ ] = another dose, or the depositor's remark.

#	Compound	D2 agonist	gsp antag	D2 PAM
1	O=C1COc2cc(ccc2[N+](=O)[O-])Oc2ccc(cc2Cl)C(=O)CCCCO1	-1.1	-20.4%	-5.5
2	O=C(CCN1C(=O)/C(=C/c2ccc(F)cc2)SC1=S)Nc1cccnc1	0.4	-22.0%	-4.7
3	CCOc1ccc(N2C(=O)CC(NCCNc3ccc(C(=O)c4cccs4)cc3)C2=O)cc1 (stereo not given)	0.3	-17.2%	-14.3
4	O=C(NCCc1ccccc1)C1(c2ccccc2)CCCC1	-2.2	-6.0%	-6.5
5	Cc1nn(CC(=O)Nc2ccc(S(=O)(=O)N(C)C)cc2)c(C)c1[N+](=O)[O-]	-4.6	3.2%	-6.6
6	CCOC(=O)c1ccc(COc2nc3ccccc3nc2-c2ccccc2NC(C)=O)o1	-1.7	0.8%	-6.9
7	COc1ccc(CNC(=O)C2CCN(C(=O)N3CCOc4ccc(C)cc43)CC2)cc1	-2.3	-6.7%	2.9
8	CCOC(=O)c1sc(NC(=O)CNCc2ccccn2)c(C(=O)OCC)c1C	-2.9	-26.7%	-16.5
9	CCOC(=O)C1=C(CC)Nc2ccccc2N/C1=N\S(=O)(=O)c1cc(Br)ccc1Br	-4.5	?	-5.1
10	CC(Sc1nc2ccccc2s1)C(=O)Nc1ccc2c(c1)OCO2 (stereo not given)	0.5	-11.5%	-6.1

#	Six1-Eya2 blk	CtBP-E1A inh	gsp agonist
1	-5.6	·	14.7%
2	17.5	-5.5	-2.8%[15.4 µM]
3	-19.8	·	12.2%
4	13.8	0.8	-2.2%[15.4 µM]
5	-9.8	-1.9	0.0%[15.4 µM]
6	2.2	6.6	0.7%
7	2.3	2.6	5.4%
8	?	-71.5*	3.4%
9	3.8	1.2	14.9%[15.4 µM]
10	-21.1	1.7	4.0%[15.4 µM]

An excerpt from above in order of their number in Six1-Eya2 blk, largest number first.
#	Compound	D2 agonist	gsp antag	D2 PAM
4	O=C(NCCc1ccccc1)C1(c2ccccc2)CCCC1	-2.2	-6.0%	-6.5
6	CCOC(=O)c1ccc(COc2nc3ccccc3nc2-c2ccccc2NC(C)=O)o1	-1.7	0.8%	-6.9
3	CCOc1ccc(N2C(=O)CC(NCCNc3ccc(C(=O)c4cccs4)cc3)C2=O)cc1 (stereo not given)	0.3	-17.2%	-14.3

#	Six1-Eya2 blk	CtBP-E1A inh	gsp agonist
4	13.8	0.8	-2.2%[15.4 µM]
6	2.2	6.6	0.7%
3	-19.8	·	12.2%

(cont.)
#	Compound	D2 agonist	gsp antag	D2 PAM
11	CC(Sc1nc(O)c(-c2ccccc2)c(=O)[nH]1)C(=O)Nc1ccc(Cl)cc1 (stereo not given)	2.8	·	-8.7
12	O=C(Cn1c(=O)c(=O)n(Cc2ccccc2)c2ccc(Cl)cc21)Nc1cccc(F)c1	1.2	-0.1%	-4.8
13	O=C(N=C1c2ccccc2CN1c1ccc(F)cc1)c1ccc(Cl)nc1	-3.1	0.7%	2.5
14	COc1ccc(C(=O)NCCOc2ccccc2)cc1S(=O)(=O)N1CCOCC1	-3.2	-11.1%	-2.3
15	OCCN1CCN(C(=S)NC2CCCC2)CC1	-3.7	3.7%	-2.1
16	Cn1cccc1/C=C1\SC(=S)N(NC(=O)c2ccccc2O)C1=O	-5.2	?	-6.8
17	CCCCOc1ccc(C(=O)NNC(=O)c2cnccn2)cc1OC	1.7	5.9%	-1.9
18	COc1ccc(C(=O)NC(C)c2nnc(SCC(=O)NC3CCCCC3)n2C)cc1 (stereo not given)	-1.8	5.1%	-8.0
19	COCCN(CCOC)S(=O)(=O)c1ccc(/C(O)=C(\C#N)c2nc3ccccc3[nH]2)cc1	-2.2	-2.6%	-0.8
20	CCOC(=O)N1CCN(CC(O)COCc2ccc(OC)c(OC)c2)CC1 (stereo not given)	-0.5	4.0%	-10.2

#	Six1-Eya2 blk	CtBP-E1A inh	gsp agonist
11	-16.1	-7.4	-10.8%[15.4 µM]
12	2.3	-6.7	?
13	-3.5	0.7	-15.1%
14	4.1	-4.6	-1.7%
15	-1.8	-7.8	-1.9%[15.4 µM]
16	?	?	-8.4%[15.4 µM]
17	-16.0	0.0	-17.5%[15.4 µM]
18	4.3	5.1	6.1%[15.4 µM]
19	0.0	-6.0	-9.9%
20	-2.3	0.8	-2.5%

The listing continues:
#	Compound	D2 agonist	gsp antag	D2 PAM
21	Cc1cccc(C)c1Nc1ncnc2ccccc12	-2.6	10.6%	-6.7
22	CC(=O)Nc1ccc(S(=O)(=O)N(C)CC(=O)OCC(=O)Nc2ccc3c(c2)OCO3)cc1	0.5	4.0%	-1.7
23	C[C@H]1COC(=O)[C@@H](Cc2ccc(F)cc2)C/C=C\C[C@H](CC(=O)NCCO)C(=O)N1	-1.2	6.6%	-34.2
24	Cc1ccc(-c2noc(CSc3nnc(Cc4cccs4)n3-c3ccccc3)n2)cc1	-8.5	?	-8.5
25	O=C(CN(C(=O)CCC(=O)Nc1ccccn1)c1ccc2c(c1)OCCO2)NCCc1ccccc1	-0.6	1.5%	5.8
26	O=c1nc2s/c(=C\c3ccco3)c(=O)n2nc1Cc1ccccc1	0.6	-10.9%	11.7
27	C/C(=N\Nc1cccc(C(=O)O)c1)c1cc2ccccc2o1	-1.9	-65.3%	-8.9
28	Cc1onc(-c2ccccc2)c1C(=O)OCC(=O)Nc1ccccc1Cl	-4.9	·	-5.4
29	Cc1cccnc1C(NC(=O)C1CCN(Cc2ccc(Cl)c(Cl)c2)CC1)c1ccc(Cl)cc1 (stereo not given)	-1.6	·	-19.9
30	CC(C)Cn1c(N)c(C(=O)COC(=O)c2ccccc2F)c(=O)n(C)c1=O	-1.5	-24.3%	-1.0

#	Six1-Eya2 blk	CtBP-E1A inh	gsp agonist
21	-0.1	·	-37.8%[inhibitor]
22	-2.8	-6.6	-18.9%
23	1.6	4.8	·
24	-6.2	-0.2	1.8%
25	11.1	-1.4	-26.8%
26	-82.8*	-81.2*	-28.2%
27	-9.9	-12.5	10.5%[15.4 µM]
28	-10.4	1.9	-21.5%
29	-13.4	-13.0	·
30	-0.6	-21.8	-11.0%

New compounds follow
#	Compound	D2 agonist	gsp antag	D2 PAM
31	CCn1c2ccc(C)cc2c2n[nH]c(=S)nc21	-5.5	1.5%	-25.7
32	Cc1ccccc1NC(=S)N1CCN(c2ccccc2C)CC1	2.2	-6.6%	-8.3
33	Cc1cc(C(=O)NNC(C)Cc2ccccc2)no1 (stereo not given)	-5.3	·	-7.2
34	CCOC(=O)N1CCC(NC(=O)c2cc(C(=O)Nc3cccc(OC)c3)ccc2CO)CC1	-2.3	-2.0%	-5.6
35	CC1=CC(C)(C)N(S(=O)(=O)c2ccc(C)cc2)c2ccc(C)cc21	-0.4	-1.7%	-18.5
36	COC(=O)CCC(C)N1CCC(Oc2ccc(C(=O)NCc3ccccn3)cc2)CC1 (stereo not given)	-1.9	-2.3%	-21.8
37	O=C(CCc1nnc(-c2ccc3c(c2)OCO3)o1)N(Cc1ccncc1)CC1CCCO1 (stereo not given)	-3.1	-2.5%	-8.8
38	O=C(Nc1cccc(Oc2ccccc2)c1)C1Cc2c(-c3ccc4c(c3)OCO4)ccnc2O1 (stereo not given)	1.0	·	-10.0
39	Brc1ccc(-c2csc(-c3ccncc3)n2)cc1	2.7	-10.9%	5.1
40	O=c1ccc(/C=C/c2ccccc2)nn1Cc1ccccc1Cl	1.2	-23.0%	-14.1

#	Six1-Eya2 blk	CtBP-E1A inh	gsp agonist
31	-74.9*	-87.9*	9.2%[15.4 µM]
32	-5.6	5.4	-45.9%[inhibitor]
33	2.5	1.7	-28.3%
34	15.2	27.4	-15.1%
35	2.5	9.6	-1.4%
36	4.8	-6.4	-18.4%
37	-0.3	·	22.6%
38	-5.8	-5.8	·
39	5.9	-8.8	1.6%
40	6.0	2.3	20.1%

Further structures:
#	Compound	D2 agonist	gsp antag	D2 PAM
41	Cc1cnc(CN(C)Cc2c(C(=O)N3CCCCCCC3)nc3ccc(Cl)cn23)[nH]1	-5.5	-11.4%	-23.1
42	CC(=O)c1cccc(NC(=O)c2cc(S(=O)(=O)N3CCOCC3)cs2)c1	-3.3	-6.8%	-14.1
43	CC(C)C(O)(c1ccccc1)C(CN1CCOCC1)c1ccccc1 (stereo not given)	-0.3	-0.3%	-9.0
44	Cc1c(NC(=O)c2ccc3c(c2)OCO3)cccc1-c1nc2ncccc2o1	-0.8	?	-5.3
45	CN1CCN(C(=O)c2cc(-c3ccco3)on2)CC1	-2.7	9.3%	-3.6
46	CCCCn1c(N)c(N(CC(C)C)C(=O)C(C)SCc2nc3sc(C)c(C)c3c(=O)[nH]2)c(=O)[nH]c1=O (stereo not given)	-3.0	5.7%	-5.7
47	Cc1cc(OCCn2cnc3ccccc3c2=O)ccc1[N+](=O)[O-]	-5.3	3.8%	-1.8
48	CC(C)c1ccc(NC2CCCN(C(=O)CCc3cnn(C)c3)C2)cc1 (stereo not given)	-0.6	9.4%	-3.3
49	Cc1ccc(NC(=O)CSc2nnc(Cn3cnc4ccccc43)o2)cc1	-1.2	-6.9%	-12.0
50	CCCc1cc(=O)oc2c(C)c(OCC(=O)N3CCC(C(=O)O)CC3)ccc12	-5.3	-0.4%	-40.8

#	Six1-Eya2 blk	CtBP-E1A inh	gsp agonist
41	1.0	-4.5	-4.6%
42	-4.5	-5.4	?
43	-1.6	·	14.2%
44	0.1	2.3	?
45	3.7	1.4	?
46	-3.3	-5.2	11.2%[15.4 µM]
47	24.0	-4.8	-0.2%[15.4 µM]
48	-4.4	-1.3	-3.1%[15.4 µM]
49	-3.2	-0.2	-1.0%
50	-7.8	-13.4	·

The list goes on:
#	Compound	D2 agonist	gsp antag	D2 PAM
51	C=C1CCN(C(C(=O)OC)C(C)C)S(=O)(=O)c2ccccc21 (stereo not given)	-3.0	7.4%	-3.7
52	COc1ccc(NC(=S)NC(=NS(=O)(=O)c2ccc(Cl)cc2)c2ccccc2)cc1	0.9	-1.2%	-8.8
53	Cc1cc(C)cc(OCCCC(=O)O)c1	4.0	0.2%	-10.7
54	O=C(O)CCCC(=O)Nc1ccc(OCc2nc3ccccc3s2)cc1	-2.0	4.9%	3.1
55	COc1ccc(-n2c(COc3cccc(C)c3)nnc2SCC(=O)NCc2ccco2)cc1	-5.0	-23.8%	-25.3
56	CCCOc1cc(C)c(Cl)cc1S(=O)(=O)N(CC)CC	-5.4	?	-21.6

#	Six1-Eya2 blk	CtBP-E1A inh	gsp agonist
51	11.0	3.5	·
52	-8.0	-2.5	-17.4%
53	14.5	4.1	-29.0%
54	-1.3	-13.2	?
55	-4.5	-8.7	-1.0%
56	14.1	15.8	11.5%

Screening results: PubChem, National Center for Advancing Translational Sciences (NCATS)
